H5N1 antiviral: MDCK cell protection from H5N1 avian flu | cytopathic effect, luminescence, 72 h; hits give high values; no value below 0 was filed and about half of the inactive calls have no number; reference of the scale not given here | inhibition, % at 50 µM | actives 0.07% (n = 96,000); in the data active = inhibition above about 25%
An asterisk follows results filed as active; i = inactive.

cpd	structure	H5N1 antiviral
1	O=C(CN1CCN(Cc2ccccc2)C1=O)NCc1cccs1	i
2	CCC(=O)NCCc1nc2ccccc2n1CC	2.8
3	CC(C(=O)Nc1ccccc1-c1ccccc1)N1CCOCC1 (stereo unspecified)	2.7
4	Cn1c(=O)c2c(nc(NCC(O)CO)n2CCc2ccccc2)n(C)c1=O (stereo unspecified)	0.9
5	COc1ccc(CCNC(=O)C2(C)CCC(=O)N2CCC(C)C)cc1OC (stereo unspecified)	0.8
6	O=c1c2ccccc2[nH]c(=S)n1C1CCCCC1	0.1
7	CCN1CCN(Cc2nnnn2C(C)(C)C)CC1	1.2
8	C=CCSc1nc(-c2ccccc2)c2cc(Cl)ccc2n1	i
9	COc1ccc(N2CCN(C(=O)C3COc4ccccc4O3)CC2)cc1 (stereo unspecified)	0.1
10	CC(C)NC(=O)c1ccc2c(c1)nnn2C	0.4

(further entries)
cpd	structure	H5N1 antiviral
11	CC(c1nnnn1C(C)(C)C)N(Cc1cccnc1)Cc1ccccc1Cl (stereo unspecified)	0.8
12	CC(C)CCNC1=NCCCCC1	i
13	Cc1ccc(-n2c(SCn3nnc4ccccc4c3=O)nnc2-c2cccnc2)c(C)c1	1.3
14	Cc1cccnc1NC(=O)C1CCCN(S(=O)(=O)c2ccc3c(c2)oc(=O)n3C)C1 (stereo unspecified)	0.7
15	Cc1onc(-c2ccccc2)c1-c1n[nH]c(=S)n1-c1ccc(C(=O)O)cc1	1.0
16	O=C1CSc2ccccc2N1Cc1ccccc1F	0.9
17	CC1(C)Cc2c(C#N)c(NC3CCCCC3)nc(-c3ccco3)c2CO1	0.4
18	C=CCn1c(SCc2ccccc2)nc2scc(-c3ccc(C)o3)c2c1=O	0.1
19	Cn1c(-c2ccccc2)cc(=O)c2ccccc21	i
20	CCOC(=O)CCSCC(=O)Nc1nnc(C)s1	i

(continued)
cpd	structure	H5N1 antiviral
21	CCCN1CNC(=S)N(c2cccc(C)c2C)C1	i
22	Cc1cc([N+](=O)[O-])c(C(C)(C)C)cc1N	0.8
23	COCCN1C(=O)C(O)=C(C(=O)c2cccs2)C1c1ccccc1 (stereo unspecified)	i
24	CC1CCN(S(=O)(=O)c2ccc(NC(=O)CCN3C(=O)c4ccccc4C3=O)cc2)CC1	0.7
25	Cc1ccc(S(=O)(=O)N2CCN(C(=O)CSC3CCCC3)CC2)c(C)c1	3.7
26	CCOC(=O)C1CCCN(C(=O)Nc2ccccc2)C1 (stereo unspecified)	0.3
27	Cc1ccc(C(=O)NNC(=O)c2cc3cc4ccccc4nc3s2)cc1	i
28	COc1cccc(CNc2ccc(S(=O)(=O)Nc3nccs3)cc2)c1O	1.4
29	COCCCN(C(=O)Nc1ccc(C)c(C)c1)C(C)c1ccccn1 (stereo unspecified)	1.6
30	C=CCn1c(SCC(=O)c2ccc(O)c(O)c2)nnc1-c1ccccc1OC	i

Exported with each value named: entries from further up.
[9] COc1ccc(N2CCN(C(=O)C3COc4ccccc4O3)CC2)cc1 (stereo unspecified)
  H5N1 antiviral: 0.1

[28] COc1cccc(CNc2ccc(S(=O)(=O)Nc3nccs3)cc2)c1O
  H5N1 antiviral: 1.4

[14] Cc1cccnc1NC(=O)C1CCCN(S(=O)(=O)c2ccc3c(c2)oc(=O)n3C)C1 (stereo unspecified)
  H5N1 antiviral: 0.7

[4] Cn1c(=O)c2c(nc(NCC(O)CO)n2CCc2ccccc2)n(C)c1=O (stereo unspecified)
  H5N1 antiviral: 0.9

The listing continues:
cpd	structure	H5N1 antiviral
31	Cc1ccccc1CS(=O)(=O)CC1(O)CCN(C(=O)c2cccc(C(F)(F)F)c2)CC1	i
32	CCOC(=O)c1ccc(Oc2nc(OC)nc(N(C)C)n2)cc1	i
33	CCC(=O)NC(=S)Nc1cccc(C(C)=O)c1	i
34	CCOC(=O)c1cnn(-c2ccccc2)c1NC(=O)c1ccc(C)cc1	0.1
35	CC(Oc1ccc(Cl)cc1Cl)C(=O)Nc1ccncc1 (stereo unspecified)	i
36	Cc1ccc(S(=O)(=O)c2ccc(Oc3cccc(C)c3)cc2)cc1	1.2
37	CC(C)CC(=O)Nc1cc2nn(-c3ccccc3)nc2cc1Cl	i
38	CCN(CC)S(=O)(=O)c1ccc2nc(CSc3nnnn3-c3ccc(O)cc3)[nH]c2c1	1.2
39	COC(=O)NNC(=O)C(C)Oc1ccc(Cl)cc1Cl (stereo unspecified)	0.2
40	Fc1ccc(CN2CCN(c3ncccn3)CC2)cc1	i

Continuation:
cpd	structure	H5N1 antiviral
41	Cc1noc(C)c1C(=O)Nc1ccccc1-c1ccccc1	0.1
42	Cc1ccc2c(c1)CCCN2C(=O)c1ccncc1	i
43	O=C(CSc1nnc(-c2cccs2)n1-c1ccccc1)NCc1ccc2c(c1)OCO2	1.1
44	CCN(CC)S(=O)(=O)c1cccc(C(=O)N2CC(O)CC2C(=O)OC)c1 (stereo unspecified)	i
45	CCOc1ccc(Cl)cc1S(=O)(=O)N1CCN(c2ccc(F)cc2)CC1	i
46	Cc1cc(SCCOc2ccc(Br)cc2)nc(N)n1	i
47	CC1(C)CNC(=O)CC(C)(C)N1O	0.7
48	O=C(Nc1ccccc1)c1ccc(S(=O)(=O)N2CCOCC2)cc1	i
49	O=C(Nc1ccccc1OC(=O)N1CCOCC1)N1CCOCC1	0.5
50	O=C(Nc1cnn(Cc2ccccc2)c1)c1cc2nc(-c3ccco3)cc(C(F)(F)F)n2n1	i

Other records.
cpd	structure	H5N1 antiviral
51	NC(=O)c1ccccc1N/C=C/C(=O)c1ccc(Cl)cc1	i
52	COc1ccc(C)cc1S(=O)(=O)N(C)CC(=O)NCc1ccco1	0.1
53	CSCC[C@H](NC(=O)CC(C)(C)C)c1nc2ccccc2[nH]1	i
54	O=C(Nc1ccc(S(=O)(=O)NC2CCCC2)cc1)c1cnccn1	0.1
55	COc1ccc(Cn2nnnc2C(c2cc3cccc(C)c3[nH]c2=O)N2CCOCC2)cc1 (stereo unspecified)	0.1
56	O=C(COc1ccccc1)Nc1ccc2c(c1)nc1n2CCOC1	i
57	CN=c1scc(C)n1/N=C/c1ccc(O)c(O)c1O	4.1
58	CCOC(=O)c1cnc(SCC(=O)Nc2nc(C)c(C)s2)nc1N	i
59	Cc1c(-c2c(C#N)c(N)nc3c2CCCCCC3)cnn1C	0.1
60	Cc1ccc(/C=N/NC(=O)Cn2nccc2C)o1	0.3

New compounds follow.
item | SMILES | H5N1 antiviral
61 | CN(C)CCN1C(=O)C(=O)/C(=C(/O)c2ccc(F)cc2)C1c1ccccc1 (stereo unspecified) | i
62 | CC(C)COP(=O)(c1ccc(N(C)C)cc1)C(O)c1ccccn1 (stereo unspecified) | 0.9
63 | COc1ccc(-c2nnc(SCC(=O)Nc3cc(C)on3)n2N)cc1OC | i
64 | Nc1nc2n(n1)C(c1ccccc1)CC(c1ccc(F)cc1)N2 (stereo unspecified) | i
65 | Cc1cccc(NS(=O)(=O)c2ccc(C)c(C(=O)OCC(=O)Nc3cc(C)on3)c2)c1 | 0.1
66 | O=C(NCc1ccc(Cl)cc1)c1ccc(Cn2cc(C(F)(F)F)ccc2=O)cc1 | 7.7
67 | CCOc1cc(C#N)c(NC(=O)c2ccco2)cc1OCC | 1.9
68 | Cc1ccc(S(=O)(=O)N(C)Cc2cc3ccccc3[nH]c2=O)cc1 | 0.4
69 | Cc1cccc(NC(=O)c2c(F)c(F)c(F)c(F)c2F)c1 | 0.4
70 | COc1ccc(NC(=O)CSc2nc(C)cs2)cc1OC | i
71 | O=C(Oc1cccc(-n2cnnn2)c1)C1CCCCC1 | i
72 | CC1CCN(C(=O)CSc2nncn2-c2ccccn2)CC1 | i
73 | O=C(CSc1nc2ccccc2o1)Nc1nc2ccccc2s1 | i
74 | COc1ccc2c(c1)c(=O)oc1c(C)c(OCC(=O)N3CCc4ccccc4C3)ccc12 | i
75 | COC(=O)c1[nH]c(C)c(/C(O)=C2\C(=O)C(=O)N(CCN3CCOCC3)C2c2ccccc2OC)c1C (stereo unspecified) | 0.7
76 | CCOc1cc(S(=O)(=O)n2c(C)nc3ccccc32)ccc1F | 0.3
77 | CC1(C)Cc2c(sc3c2c(=N)n(Cc2ccco2)c(=O)n3Cc2ccc(F)cc2)CO1 | 5.9
78 | COC(=O)c1cc(NC(=O)CN2CCC(C(N)=O)(N3CCCCC3)CC2)cc(C(=O)OC)c1 | 4.0
79 | CCOc1ccc(S(=O)(=O)N(CC(=O)N/N=C/c2ccc(-c3ccc([N+](=O)[O-])cc3)o2)c2ccccc2)cc1 | 0.3
80 | CCN1CCN(c2nc3c(c(=O)[nH]c(=O)n3C)n2CCSc2nc3ccccc3s2)CC1 | 1.7
81 | CCNC(=O)N1C(CC(=O)OCC)C(=O)NC2CCCCC21 (stereo unspecified) | 0.4
82 | N#Cc1c(NC(=O)CSc2nc(N)cc(=O)[nH]2)sc2c1CCCCCC2 | i
83 | CC(C)OC(=O)c1c(N)n(CCCN2CCOCC2)c2nc3ccccc3nc12 | 0.3
84 | Cc1ccc(NC(=O)CN(C)S(=O)(=O)c2cccc3cccnc23)cc1 | 1.6
85 | COc1ccc(-n2nc3c(c2NC(=O)C24CC5CC(CC(C5)C2)C4)CS(=O)C3)cc1 (stereo unspecified) | 0.7
86 | COc1ccc(CNCC(O)(c2ccc(Cl)cc2)c2ccc(Cl)cc2)cc1 | i
87 | CCOC(=O)C1C(=O)OC2(CCOC(C)(C)C2)C1C(=O)OCC (stereo unspecified) | i
88 | COC(=O)c1cc(F)c(-n2cncn2)c(F)c1 | i
89 | N#Cc1c(Cl)c(Cl)c2nnc(-c3ccc(Br)cc3)n2c1Cl | 0.2
90 | CN(C=O)CP(=O)(O)CN1CCCCC1 | i

(next part)
item | SMILES | H5N1 antiviral
91 | Oc1oc(-c2ccccc2)nc1C=Nc1cccc2ccccc12 | 0.9
92 | Cc1ccc(S(=O)(=O)N2CCN(S(=O)(=O)c3ccc(C)cc3)C3OCCOC32)cc1 (stereo unspecified) | 0.2
93 | Oc1c(CN2CCOCC2)cc(-c2ccccc2)cc1CN1CCOCC1 | 0.3
94 | Cc1cc(/C=C2\SC(=Nc3ccccc3)NC2=O)c(C)n1-c1ccc(S(N)(=O)=O)cc1 | 3.1
95 | CC(C)(C)n1ncc2c(=O)n(CC(=O)N3CCCCCC3)cnc21 | 2.0
96 | Cc1ccc(C2CC(C(F)(F)F)n3nc(C(=O)NCc4c(C)nn(C)c4C)c(Cl)c3N2)cc1 (stereo unspecified) | 8.8
97 | CCCN1CCC(NC(=O)Nc2ccc(F)cc2F)CC1 | i
98 | Cc1cc2nc(-c3ccc(SCC(=O)N4CCOCC4)nc3)[nH]c2cc1C | i
99 | CN1Cc2cc(C(=O)c3ccccc3O)cnc2NC1=O | 0.1
100 | CCOC(=O)C1CCCN(C(=O)c2ccccc2SCCOC)C1 (stereo unspecified) | i
101 | CCC(C)(C)NC(=O)C(c1cccs1)N(CC1CCCO1)C(=O)Cn1nnc2ccccc21 (stereo unspecified) | i
102 | N#CCOc1nc(N2CCCC2)nc(N2CCCC2)n1 | 0.4
103 | COc1cccc(CNCC(O)(c2ccc(Cl)cc2)c2ccc(Cl)cc2)c1 | i
104 | CCCc1nnc(SCC(=O)N2CCCCC2)n1CCCOC | i
105 | COc1ccc(C=O)cc1COc1ccc(C)cc1[N+](=O)[O-] | 0.1
106 | O=C(CSc1ccccc1)N1CCN(c2ccccc2)CC1 | 0.3
107 | COc1cc(NC(=O)Cc2c(C(=O)O)[nH]c3ccccc23)cc(OC)c1OC | i
108 | COCCNC(=O)Cn1nc(C(F)(F)F)c(Br)c1C | 0.6
109 | CCOC(=O)CSc1cn2c(n1)CCC2 | i
110 | O=C(CSc1nnnn1C1CCCCC1)Nc1nc2c(s1)CCCC2 | 4.8
111 | COc1ccc(S(=O)(=O)NCc2ccncc2)cc1OC | 0.6
112 | CCCCCn1c(CNC(=O)CCC)nc2ccccc21 | 0.1
113 | O=C(c1cc2c(s1)-c1ccccc1S(=O)(=O)C2)N1CCN(Cc2ccccc2)CC1 | 1.2
114 | O=C(c1cc(-c2cccs2)on1)N1CCCCC1 | i
115 | O=S(=O)(Nc1ccc(O)cc1)c1cccc2cccnc12 | 1.5
116 | CCOC(=O)CNS(=O)(=O)c1cc(-c2n[nH]c(=O)c3ccccc23)ccc1C | i
117 | Cc1nc(NC(=O)CSc2nnc(C)n2CC2CCCO2)sc1C (stereo unspecified) | i
118 | CCOC(=O)c1[nH]cc(-c2ccccc2)c1N1CCOCC1 | 0.1
119 | Cc1ccc(SC(C)c2nc(-c3ccccc3)no2)cc1 (stereo unspecified) | i
120 | CCNC(=O)c1sc(=S)n(-c2ccc(C)cc2)c1N | 0.5

Part of the list above, with each value named.
106: O=C(CSc1ccccc1)N1CCN(c2ccccc2)CC1
  H5N1 antiviral: 0.3

113: O=C(c1cc2c(s1)-c1ccccc1S(=O)(=O)C2)N1CCN(Cc2ccccc2)CC1
  H5N1 antiviral: 1.2

105: COc1ccc(C=O)cc1COc1ccc(C)cc1[N+](=O)[O-]
  H5N1 antiviral: 0.1

91: Oc1oc(-c2ccccc2)nc1C=Nc1cccc2ccccc12
  H5N1 antiviral: 0.9

Next part
item | SMILES | H5N1 antiviral
121 | COc1cccc(NC(=O)C(C#N)Cc2ccncc2)c1 (stereo unspecified) | i
122 | CCOc1ccc(NC(=O)N2CCC(NC(=O)c3ccco3)CC2)cc1 | i
123 | O=C(c1cccnc1)N1CCN(CCCc2ccccc2)CC1 | i
124 | Nc1nnn(Cc2ccccc2)n1 | i
125 | O=C(Cn1cnc2c(nnn2Cc2ccccc2F)c1=O)OCc1ccccc1 | 1.1
126 | Cc1ccc(N(CC(=O)N2CCn3c2nc2ccccc23)S(=O)(=O)c2c(C)n[nH]c2C)cc1 | i
127 | CCC(=O)c1ccc(CCCCCC(=O)O)s1 | i
128 | Brc1ccc(C2=CC(c3ccco3)n3ncnc3N2)cc1 (stereo unspecified) | 0.1
129 | O=C(Nc1nc2c(s1)CCCC2=O)c1cnccn1 | i
130 | CCOc1ccc(CCNC(=O)CCc2nc(-c3ccc(C)cc3)no2)cc1OCC | i
131 | O=c1[nH]c2cccnc2n1Cc1ccccc1 | 89*
132 | COc1ccc(-c2cc(C(F)(F)F)n3nc(C(=O)N4CCOCC4)c(Cl)c3n2)cc1 | i
133 | COc1ccc(S(=O)(=O)CCC(=O)NC2CCCCC2)cc1 | i
134 | CSc1nc(-c2ccco2)nn1C(=O)CCc1ccccc1 | 0.1

A second format for part of the listing above:
124. Nc1nnn(Cc2ccccc2)n1
  H5N1 antiviral: i

125. O=C(Cn1cnc2c(nnn2Cc2ccccc2F)c1=O)OCc1ccccc1
  H5N1 antiviral: 1.1

Screens as filed in PubChem.

An excerpt; the hit share may differ from the screen's.
